High-throughput results as filed in PubChem.
VDR inhibitor – vitamin D3 receptor (human) inhibition; Potency, µM, inactives show max response, negative = inhibition, usual class: inhibitors; VDR-SRC2-3 peptide fluorescence polarization, 2 h; P11473; actives 0.93% (n = 400,000); active = well fitted inhibition curve with a large enough effect; inconclusive = small, poorly fitted or top-dose-only effect, or another doubt; inactive = no such curve, though single readings can be large or run the other way; also: series mostly up to about 120 µM
Target sequence (P11473 whole entry, looked up): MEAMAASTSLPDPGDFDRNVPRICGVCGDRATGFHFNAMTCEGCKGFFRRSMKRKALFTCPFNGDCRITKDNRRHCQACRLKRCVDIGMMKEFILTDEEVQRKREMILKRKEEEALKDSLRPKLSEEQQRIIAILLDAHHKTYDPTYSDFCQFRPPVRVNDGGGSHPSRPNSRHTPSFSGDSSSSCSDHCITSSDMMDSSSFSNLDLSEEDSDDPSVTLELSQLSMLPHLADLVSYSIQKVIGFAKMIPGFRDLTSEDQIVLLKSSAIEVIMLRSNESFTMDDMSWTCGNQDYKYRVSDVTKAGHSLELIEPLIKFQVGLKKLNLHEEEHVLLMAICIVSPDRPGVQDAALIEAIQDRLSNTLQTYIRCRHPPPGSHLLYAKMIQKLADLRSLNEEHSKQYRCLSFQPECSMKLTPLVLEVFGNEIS
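Fluorescence polarization assay measuring small-molecule disruption of VDR binding to the coregulator peptide SRC2-3. Compounds were pin-transferred (23 nl) into the reagent mix and incubated 2 h at room temperature before reading.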
* marks the source's active call; other numbers are inactive results; u = inconclusive. % is scaled to controls: 0 for no effect and ±100 for the full control effect; potency is read from the fitted curve at half-maximal effect. An excerpt, so the mix of outcomes need not match the whole.

VDR inhibitor | SMILES
1.0% | COCc1ccc(C(=O)N(C)CC2CCCN(CCc3ccc(Cl)cc3)C2)o1 (centres undefined)
-6.6% | O=C(OCCc1cc2ccccc2c(=O)o1)c1cccs1
18.3% | S=C(Nc1cc(Cl)cc(Cl)c1)NC1CCN(Cc2ccccc2)CC1
-3.7% | COc1cccc(/C=N/NC(=O)C(=O)N2CCCC2)c1O
-17.1% | COc1ccc(CNC(=O)CSC(=S)N2CCCC2)cc1
-5.7% | CCCCNC(=O)N(O)C1N(/N=C/c2ccccc2F)C(=S)SC1(C)C (centres undefined)
5.7% | O=C(CSc1nnnn1-c1ccccc1)NC(=O)NCc1ccco1
-12.6% | CC(C)C(NS(=O)(=O)c1ccccc1)C(=O)N1CCCC1 (centres undefined)
-5.3% | CC1CN(C(=O)COC(=O)c2cccc(S(=O)(=O)N3CCc4ccccc43)c2)CC(C)O1 (centres undefined)
-14.8% | CC(=O)N1N=C(c2ccccc2)CC1c1ccccc1 (centres undefined)
3.3% | COc1ccc(-c2csc(N3C(=N)SCC3=O)n2)cc1
-14.1% | O=C(O)CCN1C(=O)C2C3c4ccccc4C(c4ccccc43)[C@@H]2C1=O (some centres undefined)
-13.7% | COc1cc(OC)cc(-c2c(-c3ccc(F)cc3)c3cc(-c4ccc5c(c4)OCCO5)ccc3n2C)c1
-6.8% | COc1ccc(OC)c(C(=O)NC(CC(N)=O)c2ccc(NCC3CC3)c([N+](=O)[O-])c2)c1 (centres undefined)
5.9% | CSC1=NCCN1C(=O)c1c(F)cccc1F
-8.6% | COc1ccc(NC(=O)CSc2nnc(Cc3ccccc3)c(=O)n2N)cc1
-15.7% | COCCn1c(C)cc(C(=O)CSc2nc3ccccc3c(=O)[nH]2)c1C
-23.8% | COc1ccccc1C(c1nnnn1Cc1ccco1)N1CCN(c2cccc(C)c2C)CC1 (centres undefined)
0.6% | Cc1cc2nnc(SCC(=O)NCc3ccco3)n2c2ccccc12
-1.7% | Nc1nnc(N2CCCCCC2)s1
-18.6% | C/C(CC(=O)Nc1ccc2c(c1)OCCO2)=N\NC(=O)COc1ccccc1
-5.9% | CCCCc1ccc(NC(=S)NCc2cccnc2)cc1
2.7% | CCC(=O)c1ccc(N2CCCC2)c(F)c1
2.3% | O=C(CNCc1cccs1)Nc1ccc(N2CCCCCC2)cc1
-17.8% | COc1ccccc1NS(=O)(=O)c1cccc(NC(=O)Cc2cccs2)c1
6.2% | CCOCCCn1cnc2c([nH]c3cc(OC)ccc32)c1=O
-3.0% | Cc1cccc(NC(=O)c2cc3n(n2)C(C(F)(F)F)CC(c2ccc4c(c2)OCO4)N3)c1 (centres undefined)
-8.2% | O=C(Nc1ccc(N2CCCC2)c(Cl)c1)c1ccc2c(c1)OCCO2
-4.9% | CC(=O)N1CCN(CC(=O)Nc2c(Cl)ccc(C)c2Cl)CC1
-9.0% | CC(=O)NN1C(=O)/C(=C2/Sc3ccccc3N2C)SC1=S
-9.2% | Cc1cc(=O)n2nc(N3CCCC(C(=O)N4CCc5ccccc54)C3)sc2n1 (centres undefined)
13.5% | COc1ccc(S(=O)(=O)N2CCN(C(=O)C3CC(=O)N(c4ccccc4F)C3)CC2)cc1OC (centres undefined)
-15.8% | COc1cc(NC(=O)N[C@@H](Cc2ccccc2)C(=O)O)cc(OC)c1
-8.4% | Cc1nc2ccccn2c1CN(C)C(=O)C1CCC(=O)N(CCc2cccc(F)c2)C1 (centres undefined)
u | COc1ccc(COc2cc(-c3cccc(OC)c3)nc3ccc(NC(=O)c4ccc(C)cc4)cc23)cc1
2.5% | COc1ccc(NC(=O)CCOc2ccc(C)cc2)c(OC)c1
-24.6% | CC1CCCCN1C(=O)COC(=O)CNC(=O)c1ccc(Cl)cc1Cl (centres undefined)
-8.0% | COc1ccc(-c2cc(-c3ccccc3)nc(N3CCCC3)n2)cc1OC
-11.8% | Cc1cc(C)n2nc(C(=O)NCC(=O)Nc3ccc(F)c(F)c3)nc2n1
9.0% | Cn1c(C(=O)c2ccccc2[N+](=O)[O-])nc2ccccc21
-12.9% | CCCCN(C)C(=S)Nc1ccsc1C(=O)OC
-6.8% | O=C(c1ccco1)N1CCC2(CC1)CN(c1ncccn1)C2
u | COc1cc(/C=C2\C(=N)N3N=C(C)SC3=NC2=O)cc(OC)c1OCCOc1ccccc1C
1.1% | Cc1ccc(S(=O)(=O)N2c3cc(C)ccc3OCC2C(C)(C)C)cc1 (centres undefined)
4.4% | Cc1cc2nccc(-c3ccncc3)n2n1
-12.0% | Cc1ccc(OCc2nnc(SCC(=O)NCc3ccccc3)n2C)cc1
-0.3% | CN(Cc1ccc(O)cc1)C1CCCCC1
6.9% | CC(=O)Nc1ccc(NC(=O)c2cccc(C(=O)OC(C)C)n2)cc1
0.9% | CCOC(=O)C1=C(C)N(C)C(=O)NC1c1c(C)nn(-c2ccccc2)c1C (centres undefined)
5.5% | O=C(COC(=O)c1ccc(F)cc1Cl)NCc1ccco1
3.3% | NS(=O)(=O)c1ccc(NC(=S)NNC(=O)CCC(=O)Nc2ccccc2Cl)cc1
-12.2% | COc1ccc(-c2nn(C)c(=O)c3ccccc23)cc1NS(C)(=O)=O
17.5% | Nc1nnc(SCCOc2cccc(Br)c2)s1
11.6% | CCOC(=O)c1c(-c2ccccc2)oc2ccc(OC(C)=O)cc12
5.0% | CCn1c(SCC(=O)Nc2cc(C)on2)nnc1-c1ccc(C)cc1
-10.5% | CCCCOc1ccc2c(c1)/C(=C(\C(Cl)=C(Cl)Cl)[N+](=O)[O-])N2
-2.7% | COc1cc(OC)c(OC)cc1CNCCNC(=O)c1ccco1
-9.7% | COc1ccc(C(=O)Oc2c(OC)cc(C(=S)N3CCOCC3)cc2OC)cc1
-23.7% | CCOc1ccccc1OCCC(=O)OCC(=O)Nc1c(C)cc(C)cc1C
-4.9% | Cc1oc(CSCC2CCCO2)cc1C(=O)O (centres undefined)

(further entries)
VDR inhibitor | SMILES
6.3% | COc1ccc(C(=O)NC2CC2)cc1OC1CCN(Cc2ccccc2O)CC1
10.7% | O=C(CCNS(=O)(=O)c1ccc2c(c1)CCCC(=O)N2)NCc1ccccc1Cl
4.0% | O=C(COC(=O)c1ccccc1O)Nc1cccnc1Cl
8.5% | CCCCOc1ccc(C(=O)Nc2ccc(CN3CCOCC3)cc2)cc1
26.9% | CCC(C)(C)n1nnnc1C(c1ccncc1)N1CCC(C)CC1 (centres undefined)
-5.4% | C/C(=C\C(=O)c1ccccc1)NNC(=O)c1ccc(Cl)cc1
-11.8% | Cc1ccccc1S(=O)(=O)Cc1ccc(C(=O)NCCN(C)Cc2ccccc2)o1
2.3% | N/C(=N\c1nc2ccccc2o1)NC(=O)/C=C/c1ccccc1
16.8% | O=C(CCc1nc(CN2CCN(S(=O)(=O)c3ccc(Br)cc3)CC2)no1)N1CCCCC1
0.8% | CCCCC1CCC(C(=O)N(CC(C)C)c2c(N)n(CCCC)c(=O)[nH]c2=O)CC1 (centres undefined)
-2.3% | O=C(NCCCN1CCCC1=O)C1CCN(S(=O)(=O)c2c(Cl)cccc2Cl)CC1
-1.0% | O=C(NC1CCCC1)c1ccc2c(c1)N(Cc1ccccc1)C(=O)c1ccccc1S2
-17.4% | Cc1ccc(CCN2CC(C(=O)NCCC(C)C)CC2=O)cc1 (centres undefined)
-1.4% | CCN(CC)CC(C)OC(=O)c1cc(OC)c(OC)c(OC)c1 (centres undefined)
1.6% | CC(C)Oc1ccc2c(c1)OC(c1ccccc1)(C(F)(F)F)NC2=O (centres undefined)

Part of the list above in order of heavy-atom count, high to low.
VDR inhibitor | SMILES
16.8% | O=C(CCc1nc(CN2CCN(S(=O)(=O)c3ccc(Br)cc3)CC2)no1)N1CCCCC1
-1.0% | O=C(NC1CCCC1)c1ccc2c(c1)N(Cc1ccccc1)C(=O)c1ccccc1S2
0.8% | CCCCC1CCC(C(=O)N(CC(C)C)c2c(N)n(CCCC)c(=O)[nH]c2=O)CC1 (centres undefined)
6.3% | COc1ccc(C(=O)NC2CC2)cc1OC1CCN(Cc2ccccc2O)CC1
-23.7% | CCOc1ccccc1OCCC(=O)OCC(=O)Nc1c(C)cc(C)cc1C
8.5% | CCCCOc1ccc(C(=O)Nc2ccc(CN3CCOCC3)cc2)cc1
1.6% | CC(C)Oc1ccc2c(c1)OC(c1ccccc1)(C(F)(F)F)NC2=O (centres undefined)
-2.7% | COc1cc(OC)c(OC)cc1CNCCNC(=O)c1ccco1
2.3% | N/C(=N\c1nc2ccccc2o1)NC(=O)/C=C/c1ccccc1
-10.5% | CCCCOc1ccc2c(c1)/C(=C(\C(Cl)=C(Cl)Cl)[N+](=O)[O-])N2
4.0% | O=C(COC(=O)c1ccccc1O)Nc1cccnc1Cl
-4.9% | Cc1oc(CSCC2CCCO2)cc1C(=O)O (centres undefined)

The listing picks up; the five compounds before the break are reprinted first.
VDR inhibitor | SMILES
-2.3% | O=C(NCCCN1CCCC1=O)C1CCN(S(=O)(=O)c2c(Cl)cccc2Cl)CC1
-1.0% | O=C(NC1CCCC1)c1ccc2c(c1)N(Cc1ccccc1)C(=O)c1ccccc1S2
-17.4% | Cc1ccc(CCN2CC(C(=O)NCCC(C)C)CC2=O)cc1 (centres undefined)
-1.4% | CCN(CC)CC(C)OC(=O)c1cc(OC)c(OC)c(OC)c1 (centres undefined)
1.6% | CC(C)Oc1ccc2c(c1)OC(c1ccccc1)(C(F)(F)F)NC2=O (centres undefined)
-13.5% | COc1ccc(S(=O)(=O)n2nc(OC(=O)c3ccccc3)cc2N)cc1
19.1% | COc1ccc(-c2c(C)c3cc(OC(=O)N4CCOCC4)ccc3oc2=O)cc1OC
-11.7% | O=C(NCc1cc(C(F)(F)F)ccc1Cl)c1cccc2c1C(=O)c1ccc(N3CCCCC3)cc1S2(=O)=O
-20.7% | COc1cc(C(=O)NC(=S)N2CCN(C)CC2)cc(OC)c1OC
-1.6% | COc1ccc(Cl)cc1NC(=O)c1sc2nc3c(cc2c1N)CN(C)CC3
-15.1% | CCOc1ccc(NC(=O)c2cc3c(n(-c4ccc(OC)cc4)c2=O)CC(C)(C)CC3=O)cc1
-7.0% | COc1ccc(NC(=O)c2c(NCc3ccc(OC)c(OC)c3OC)sc3c2CCC3)c(OC)c1
10.7% | Cc1ccc(CNC(=O)C2CCN(S(=O)(=O)N3CCCC3)CC2)cc1
6.2% | CCOC(=O)c1c(NC(=O)c2ccn(CC)n2)sc2c1CCCC2
2.1% | CCCCCC/C=C/c1ccc(C2C3C=CCC(C)C3C(=O)N2Cc2ccccc2)c(F)c1 (centres undefined)
-12.0% | CN(CC(=O)Nc1cccc(S(=O)(=O)NC2=NCCCCC2)c1)Cc1ccc(C(C)(C)C)cc1
-5.3% | CCC(C)NC(=O)CN(c1ccc(Cl)c(Cl)c1)S(C)(=O)=O (centres undefined)
-2.5% | O=C(Nc1nc(-c2ccccc2)cs1)c1cccs1
2.3% | Cc1c(C(=O)Nc2cccc(Cl)c2)oc2ccc(S(=O)(=O)N3CCCCCC3)cc12
-11.1% | CCn1cc(CCC(=O)NC2CCCC2)c2ccccc21
-5.0% | O=C(c1sc2ccccc2c1Cl)N1CCN(CCc2ccccn2)CC1
-10.8% | COc1ccccc1C(=O)Nc1ccc2c(c1)CN(Cc1cnc(C)s1)CC2
6.6% | O=C(NC1CC(=O)N(c2cccc(F)c2)C1)c1ccc(S(=O)(=O)N2CCOCC2)cc1 (centres undefined)
-9.4% | CSCCC1(C(=O)O)NC(c2ccccc2O)C2C(=O)N(C(C)C)C(=O)C21 (centres undefined)
-1.0% | CCCCCCc1cc2cc(C(=O)Nc3ccc(OC)cc3)c(=O)oc2cc1O
u | O=C1c2ccccc2-c2n[nH]c3cccc1c23
9.4% | CCOC(=O)c1cc2nc(-c3ccco3)cc(C(F)(F)F)n2n1
-14.2% | COC(=O)C1CCN(C(=O)CSc2nc3ccc(OC)cc3[nH]2)CC1
-7.4% | CC(NC(=O)C(CC(=O)OC(C)(C)C)NC(=O)OC(C)(C)C)C(N)=O (centres undefined)
7.3% | Cn1c(SCC(=O)Nc2ccccc2)nc2ccccc2c1=O
-0.1% | CC1(C)CC(=O)C(C2=NC3(CCCCC3)Cc3ccccc32)=C(O)C1
11.9% | COc1ccc(C2C(C(=O)c3ccco3)=C(O)C(=O)N2CCOCCO)cc1OC (centres undefined)
6.3% | COC(CNC(=O)C1CC(=O)N(CCc2ccc(C)cc2)C1)OC (centres undefined)
-5.6% | Cc1cc(NS(=O)(=O)c2ccc(NC(=O)c3oc4ccccc4c3C)cc2)no1
15.9% | O=C(NCCCN1CCOCC1)C(=O)NCC1OCCCN1S(=O)(=O)c1cc(F)ccc1F (centres undefined)
-6.9% | Oc1ccccc1-c1nc(/C=C/c2ccccc2Cl)no1
1.7% | CCC(C)C(=O)NCCc1ccc(S(N)(=O)=O)cc1 (centres undefined)
3.2% | CS(=O)(=O)N(CC(=O)N1CCN(c2ccccc2)CC1)c1cccc(Br)c1
u | Cc1c(NC(=O)C(C)OC(=O)/C=C/c2ccco2)c(=O)n(-c2ccccc2)n1C (centres undefined)
14.5% | CCCc1nnc(SCC(=O)NC2CC2)n1CC
-17.5% | CCOC(=O)c1ccc(NC(=O)C(=O)NCc2ccc(/C=C(/C#N)C(=O)NCCOC)o2)cc1
-6.7% | Cc1ccc(N2C(=O)C3C(C2=O)C2C=CC3C23CC3)c([N+](=O)[O-])c1 (centres undefined)
21.2% | COc1ccc(Cl)cc1NC(=O)CN1CCC(n2nnc3cc(F)ccc32)CC1
-2.8% | O=S(=O)(c1ccccc1Cl)N1CCCC(c2nc(-c3cccnc3)no2)C1 (centres undefined)
-4.6% | CC(O)c1nc2cc([N+](=O)[O-])ccc2n1Cc1ccccc1 (centres undefined)
-11.1% | Fc1cccc(F)c1CN1CCN(c2ncccn2)CC1
1.1% | COC(=O)c1ccc(NC(=O)c2ccc(NS(=O)(=O)c3cccc4cccnc34)cc2)cc1
-3.9% | O=C(O)c1ccccc1C(=O)N1N=C2/C(=C/c3cccc([N+](=O)[O-])c3)CCCC2C1c1cccc([N+](=O)[O-])c1 (centres undefined)
3.0% | COc1cccc(C(=O)NN2CC(O)=C(c3nc4ccccc4s3)C2=N)c1
